Source: PubChem (ICCB-Longwood Screening Facility, Harvard Medical School)
VACV E9 pol inh: inhibitors of vaccinia virus processive DNA synthesis (E9 polymerase). in vitro processive DNA synthesis, absorbance read-out; stronger effect = lower value; some inactives read as strong as hits. normalized absorbance, % (no concentration beside the values). 46,000 compounds, 0.94% hits. AID 493162;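 active = replicate mean up to 90% and picked by the depositor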;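 also: 100% = median of the test wells of a plate; 100 nL library stock went into each well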
* marks the source's active call; other numbers are inactive results.

canonical_smiles	VACV E9 pol inh
Cc1ccc(S(=O)(=O)c2cn(Cc3cccc(Cl)c3)c3cc4c(cc3c2=O)OCO4)cc1	74.0
Cc1csc(NC2=NCCCCC2)n1	98.4
Fc1ccc(Nc2nc3ccccc3s2)cc1	85.6
COc1ccc(S(=O)(=O)N2Cc3ccccc3CC2C(=O)NC(C)(C)C)cc1 (stereo unspecified)	99.9
O=C(CC1Nc2ccccc2NC1=O)Nc1ccccc1Cl (stereo unspecified)	93.2
NC(=O)CSc1cn(Cc2ccccc2)c2ccccc12	98.8
CCc1ccc(OCC(=O)N2CC(C)OC(C)C2)cc1 (stereo unspecified)	108.2
Cc1oc2c(c1C(=O)N1CCC(C)CC1)C(=O)c1ccccc1C2=O	92.4
Cn1c(=O)c2c(-c3ccc(C(C)(C)C)cc3)n(-c3cc(N)c(Cl)cc3Cl)cc2n(C)c1=O	102.3
COc1ccc(C(=O)CSc2nc(-c3cccc(C)c3)ns2)cc1	103.8
CN(C)c1ccc(NC(=O)CC2CCCCC2)cc1	105.2
CCOC(=O)c1sc2nc(C3CC3)cc(-c3ccc(OC)cc3)c2c1N	101.1
O=C(Nc1cccc(Br)c1)N1CCCC(CN2CCc3ccccc3C2)C1 (stereo unspecified)	106.5
Cn1c(CCNC(=O)Cc2ccccc2)nc2ccccc21	90.1
Cc1cccc(-c2nnc(C3CCNCC3)o2)c1	102.3
CC(C)(C)c1ccc(C(=O)Nc2c3c(nn2-c2ccc(Cl)cc2)CSC3)cc1	99.8
Cc1ccc(C2/C(=C(\O)c3ccccc3)C(=O)C(=O)N2c2ccccn2)cc1 (stereo unspecified)	106.2
O=S(=O)(c1ccc(F)cc1)N(Cc1ccc2c(c1)OCO2)c1ccc(F)cc1	95.6
O=C(C(Cc1ccccc1)n1cccc1)N(CCc1ccccc1)Cc1ccccc1 (stereo unspecified)	102.8
COc1ccc(NC(=O)Cn2cnc3ccccc3c2=O)cc1	102.2
O=C(CCN1CCN(C2c3ccccc3-c3ccccc32)CC1)Nc1cccc(C(F)(F)F)c1	98.5
COc1cccc(OCC(O)CNC(C)c2ccccc2)c1 (stereo unspecified)	93.0
CCOC(=O)C1=CN(c2ccc(OCC)cc2)C=C(C(=O)OCC)C1c1cccc(OC)c1	100.7
O=C(NCCCc1nc2ccccc2[nH]1)c1ccccc1	101.3
COc1ccc(-c2cn3c4ccccc4nc3n2CCO)cc1	105.7
Nc1ccc(N=Cc2ccc3c(c2)OCCO3)cc1	104.7
c1cc2c(cc1CN1CCN(C3CCCCCC3)CC1)OCO2	99.1
CCCSc1ccc2nc(NC(=O)OC)[nH]c2c1	99.6
C1=C[C@H]2c3ccccc3N[C@@H](c3cccc(OC4CSC4)c3)[C@H]2C1	100.0
O=C(CSCc1ccccc1)N1CCN(c2ccccc2)CC1	100.2
Cc1ccc(S(=O)c2snnc2-c2ccc(Cl)cc2)cc1 (stereo unspecified)	92.6
CCc1ccc(NC(=O)n2ncc3c(C)cccc32)cc1	109.0
O=C(CCn1cccc1)NCC1COc2ccccc2O1 (stereo unspecified)	76.2
N#Cc1c(-c2ccccc2)nc(-c2ccccc2)[nH]c1=O	86.2
O=C(CSc1ncn[nH]1)Nc1cc(Cl)ccc1Cl	109.2
CCS(=O)(=O)N1CCN=C1SCc1cccc2ccccc12	28.8*
CCOC(=O)OC(C)OC(=O)C1N2C(=O)C(NC(=O)[C@H](N)c3ccccc3)C2SC1(C)C (stereo partly specified)	99.8
CCC(=O)c1cc2ccccc2oc1=O	91.9
O=C(O)Cc1ccc(NCc2ccc(Br)cc2)cc1	98.0
COc1cc(C(=O)OCC(=O)Nc2ccc(C)cc2)cc(OC)c1OC	100.5
Cc1cc(NC(=O)/C=C/c2ccc(F)cc2)no1	99.6
O=C(COC(=O)c1ccc(Cl)nc1)NC1CCCCC1	103.2
CCCC(NC1CCS(=O)(=O)C1)C(=O)O (stereo unspecified)	100.1
Cc1cccn2c(=O)c3cc(C(=O)NC(C)c4ccccc4)sc3nc12 (stereo unspecified)	101.2
Cc1ccc(C(=O)N2CC(C)CC(C)C2)cc1 (stereo unspecified)	101.0
O=S(=O)(/C=C/c1ccccc1)n1cnc2ccccc21	100.8
O=C(O)CCN1C(=O)C2C3c4ccccc4C(c4ccccc43)C2C1=O (stereo unspecified)	98.1
COc1cc(NC(=O)c2ccc3c(SCC(=O)O)c4c(nc3c2)CCC4)cc(OC)c1OC	103.2
Cc1ccc(-n2c(SCC(=O)Nc3c(C)cccc3C)nc3ccccc3c2=O)cc1	100.7
CCC(C)c1ccc(OCC(=O)Nc2cccc(-c3nc4ncccc4o3)c2C)cc1 (stereo unspecified)	103.7

(list continues)
canonical_smiles	VACV E9 pol inh
O=C(CCc1nc2cccnc2n1-c1ccccc1)NCC1CCCO1 (stereo unspecified)	109.1
CCOC(=O)/C(C#N)=C1/C=C(C)c2ccccc2N1	102.8
CS(=O)(=NC(=O)NC(=O)c1ccc(Cl)cc1)c1ccc(C(F)(F)F)cn1 (stereo unspecified)	96.3
c1cc2nncn2nc1N1CCOCC1	100.4
O=C(COc1ccccc1Br)Nc1ccc(C(=O)OC2CCCCC2)cc1	93.6
CC(CCc1ccccc1)NC(=O)Cc1noc2ccccc12 (stereo unspecified)	93.2
CCN(CC)C(=O)Cn1cc(SCC(=O)N(C(C)C)C(C)C)c2ccccc21	100.4
CCC(C)N(C)C1CCN(C(=S)Nc2cccc(Cl)c2)CC1 (stereo unspecified)	104.8
CCOC(=O)c1c(CC(C)C)csc1NC(=O)C#Cc1ccccc1	106.7
O=C(OCC(=O)N1CCCC1)c1c(Cl)cccc1Cl	94.5
COc1ccc(-n2nc3c(c2NC(=O)c2cccc(F)c2)CS(=O)C3)cc1 (stereo unspecified)	100.2
COc1ccc(CNC(=O)c2cc(S(=O)(=O)N3CCCC3)c[nH]2)cc1	103.7
COc1ccc2oc(=O)c(C(=O)N(C)C)cc2c1	96.8
COc1cccc(C2CCN(C(=O)c3cccc4ccccc34)CC2)c1	107.1
CC12CC[C@@H]3c4ccc(O)cc4CCC3[C@@H]1CCC2=O (stereo partly specified)	100.3
O=C(CSc1ccccn1)Nc1ccccn1	100.5
CC1(C)C(C(=O)Nc2ccccc2C#N)C1(C)C	100.2
COc1ccc(CC(=O)N2c3ccccc3CCc3ccccc32)cc1	99.8
COc1ccc(NC(=O)CCC(=O)Oc2ccc(C)cc2)cc1	98.2
Cn1cccc1C(=O)c1ccc(Cl)cc1	100.4
CC(C)c1ccc(NC(=O)NN2CCOCC2)cc1	101.5
CNC(=O)C1=C(C)Nc2nc3ccccc3n2C1c1cccs1 (stereo unspecified)	98.8
C[C@]12C=CC(=O)C=C1CCC1C3C[C@@H](O)[C@](O)(C(=O)CO)[C@@]3(C)C[C@H](O)[C@@]12F (stereo partly specified)	97.6
O=C(CSc1cccc2cccnc12)NC(c1ccccc1)c1ccccc1	106.7
Cc1cccn2c(=O)c3cc(C(=O)NC4CCCCCC4)sc3nc12	100.5
COc1ccc(/C=C2\N=C(c3ccccc3)N(c3nc4ccc(C(=O)O)cc4s3)C2=O)cc1	100.2
CCC(C(=O)OCn1nnc2ccccc2c1=O)c1ccccc1 (stereo unspecified)	107.0
Cc1ccn2cc(CCNS(=O)(=O)c3ccc(Cl)s3)nc2c1	99.4
Cc1nc(S(=O)(=O)c2ccc(Cl)cc2)c(N2CCOCC2)o1	104.7
CC(C)(C)NC(=O)C[n+]1cccc(/C=N/O)c1	100.4

Molecules above containing two or more sulfur atoms (4):
canonical_smiles	VACV E9 pol inh
COc1ccc(C(=O)CSc2nc(-c3cccc(C)c3)ns2)cc1	103.8
Cc1ccc(S(=O)c2snnc2-c2ccc(Cl)cc2)cc1 (stereo unspecified)	92.6
CCS(=O)(=O)N1CCN=C1SCc1cccc2ccccc12	28.8*
Cc1ccn2cc(CCNS(=O)(=O)c3ccc(Cl)s3)nc2c1	99.4

(more compounds)
canonical_smiles	VACV E9 pol inh
CCOC(=O)C1CCCN(C(=O)c2ccccc2OCc2ccccc2)C1 (stereo unspecified)	97.1
O=C(CCCCl)N1CCOCC1	91.2
O=C(Nc1ccc(Cl)c(Cl)c1)N(CCCN1CCOCC1)Cc1cccnc1	109.2
O=C(NCc1ccccc1)NC1CCS(=O)(=O)C1 (stereo unspecified)	96.5
C=C1C(C(=O)N2CCCC2)C1C(=O)N1CCCC1 (stereo unspecified)	97.1
Cc1ccc(C(O)C(C)(C)C(=O)O)cc1 (stereo unspecified)	101.1
O=C1CC(c2cccc(Br)c2)Nc2ccc3ccccc3c21 (stereo unspecified)	95.4
COc1ccc(CNC(=S)Nc2ccccc2)cc1	102.3
O=S(=O)(/N=C(\Oc1ccccc1)c1ccccc1)c1ccc(Br)cc1	99.4
COc1ccccc1NC(=O)C(NC(=O)c1ccccc1NC(=O)c1ccccc1)C(C)C (stereo unspecified)	100.0
CC1(C)Cc2ccccc2C(c2sc3nc(-c4cccs4)cc(C(F)(F)F)c3c2N)=N1	100.4
COC(=O)C1C(=O)NC(SC)=C(C#N)C1c1ccccc1Cl (stereo unspecified)	96.5
Cc1[nH]c2ccccc2c1SCCNC(=O)c1cc2ccccc2oc1=O	101.4
O=C(CSc1nc2ccc(N=Cc3cc(Br)ccc3O)cc2s1)Nc1ccccc1	100.0
CCOc1ccc(NC2=NC(C)CS2)cc1 (stereo unspecified)	97.0
COc1ccc(OC)c(Nc2nc3nonc3nc2N2CCC(C)CC2)c1	100.3
O=C(c1ccc(CS(=O)c2ccccc2)o1)N1CCN(c2ccccc2)CC1 (stereo unspecified)	101.2
CS(=O)(=O)NCc1ccc(C(=O)NCc2ccccc2)cc1	99.7
Cn1ccnc1C(O)c1ccco1 (stereo unspecified)	104.0
O=C(Nc1ccccc1)C(O)C(O)C(=O)Nc1ccccc1 (stereo unspecified)	102.6
COc1ccc(CCNC(=O)CSc2nc(C)cc(C)n2)cc1OC	100.3
COc1ccc2c(=O)c(-c3ccccc3C)c(C(F)(F)F)oc2c1	101.0
CC1=C(C(=O)N2CCOCC2)C(c2ccc(N(C)C)cc2)C2=C(CC(C)(C)CC2=O)N1 (stereo unspecified)	93.9
CC(C)N1CCC2(CC1)C(C#N)=C(N)NC(S)=C2C#N	101.7
O=c1[nH]c2ccccc2nc1/C=C(\O)c1ccc(Cl)cc1	100.6
CCc1ccc(NC(=O)CC(NCC2CCCO2)C(=O)O)cc1 (stereo unspecified)	94.2
CCn1c(=NC(=O)c2ccc(Br)s2)sc2ccccc21	107.6
CCOC(=O)Nc1noc2ccccc12	100.0
Cc1nc2c(-c3ccc(F)cc3)c(C)nn2c(C)c1CCC(=O)N(C)c1ccccc1	103.0
CCOc1ccc(N2C(=O)C3C4C=CC(C4)C3C2=O)cc1 (stereo unspecified)	90.8
O=C(Nn1cnnc1)c1ccccc1	101.0
CC(NC(=O)c1c(F)cccc1F)C(c1cccs1)N1CCN(C)CC1 (stereo unspecified)	99.7
N/C(CCCN1CCCCC1)=N\O	99.7
O=C1CCCC/C1=C/Nc1ccccc1C(=O)O	99.9
CN1CCN(C(=O)CC23CC4CC(CC(Br)(C4)C2)C3)CC1	102.3
Cn1c(CCCNC(=O)C2CCCCC2)nc2ccccc21	105.6
CCS(=O)(=O)NCc1ccc2c(c1)cc(C)n2C	89.7
CC1N(C)c2cc(NC(=O)c3cccs3)ccc2C1(C)C (stereo unspecified)	109.0
Cc1ccc(/C=C/C(=O)N(C)Cc2ccccc2)o1	114.4
S=C(c1cccc(OCc2ccccc2)c1)N1CCCCC1	99.8
O=C(COC(=O)C1c2ccccc2Oc2ccccc21)NC1CC1	105.8
N=c1oc2ccccc2cc1-c1nc2ccccc2c(=O)[nH]1	101.6
C=CCN1C(=O)NC(C)(C)C1=O	95.7
COc1ccc(NC(=O)CSc2nnc(C)n3c2cc2sccc23)cc1	98.4
O=C(c1csc(-c2ccccc2)n1)N1CC=C(c2ccccc2)CC1	87.2
COC(=O)C1Sc2[nH]c(=O)sc2C(c2ccc(OC)cc2)C1C(=O)OC (stereo unspecified)	99.7
CN(C)c1cccc(N(C)C)c1CNC(=O)c1ccccc1F	106.8
O=C(O)CC1(CC(=O)Nc2cc3ccccc3cn2)CCCCC1	93.0
CC1=C(C(=O)NC(C)C)C2(CCCCC2)OC1=O	101.5
Cc1ccc(OCc2ccc(C(=O)NC(c3ccccc3)c3ccccc3)o2)cc1C	99.9

Two compounds drawn at random from the list so far, as already listed:
canonical_smiles	VACV E9 pol inh
CC1=C(C(=O)NC(C)C)C2(CCCCC2)OC1=O	101.5
O=C(O)CC1(CC(=O)Nc2cc3ccccc3cn2)CCCCC1	93.0

Next compounds follow:
canonical_smiles	VACV E9 pol inh
CCN(CC)S(=O)(=O)c1ccc(NC(=O)COc2ccc(Cl)cc2Cl)cc1	99.2
c1csc(NC2CCCCC2)n1	98.9
CCc1ccccc1N1CC(c2nc3ccccc3[nH]2)CC1=O (stereo unspecified)	90.4
C=CCn1c(=O)[nH]c2nc3cc(N=CN(C)C)c(C)cc3nc2c1=O	103.2
O=C(N/C(=C/c1ccccc1)S(=O)(=O)c1ccc(Cl)cc1)c1ccccc1	102.4
O=C(O)c1cccnc1-c1nc2ccccc2s1	95.4
O=C(c1ccc(F)cc1Cl)N1CCCC1	98.9
Cc1nc(CS(=O)(=O)c2ccccn2)sc1C(=O)NN	100.4
CCC(C(=O)OC)n1cnc2sc(C(=O)Nc3ccccc3)c(C)c2c1=O (stereo unspecified)	94.4
CN1CCCC(OC(=O)c2ccccc2I)C1 (stereo unspecified)	87.7
C=C[C@@]1(C)CC(=O)[C@@]2(O)[C@](C)(O1)[C@@H](OC(C)=O)[C@@H](O)C1C(C)(C)CC[C@H](O)[C@@]12C (stereo partly specified)	94.6

The list is partial; rates above refer to the full screens.
